High-throughput results deposited in PubChem BioAssay by several laboratories.
Bead autofluor: counter-screen for toxin protease inhibitors: compound fluorescence; fluorescence intensity (no concentration beside the values); compound autofluorescence counterscreen, microsphere flow cytometry; active compounds read high; hit rate 3.1% among 360,000;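 active = at least 3 SD above the mean of all compounds, about 16000 in these data; inconclusive = too few beads counted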;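 also: 100 nL of 1 mM stock went into each well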
PrP 5UTR inh: suppresses PrP 5' UTR mRNA reporter expression. inhibition, % (concentration not given with the values). hit rate 0.35% among 340,000. cell-based PrP 5' UTR mRNA reporter, plate reader;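 active = every replicate at 50% or more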;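 also: 0 = median of the neutral control wells; tested in H4 reporter cells; numbers are from one replicate; inactives centre near -14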
BJeLR lethal: kills HRASV12-expressing BJeLR cells. BJeLR (HRASV12) viability, CellTiter-Glo ATP luminescence, 48 h; reference of the scale not given here. inhibition, % (no concentration beside the values). hit rate 0.17% among 300,000;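 active = replicate mean above 50%; inconclusive = above 50% but judged a plate artefact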;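 also: 50 nL library stock added to about 25 µL; numbers are from one replicate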
RN4220 kill: kills Staphylococcus aureus RN4220; AID 1259311; inhibition, % (no concentration beside the values); hit rate 0.33% among 330,000; S. aureus RN4220 growth, OD600, 16 h;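 active = z-score of -3 or lower and OD600 up to 0.18 on both plates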;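 also: plate controls were untreated cells for no effect and reference antibiotic for full effect; stock transfer was 100 nL into about 80 µL; one replicate is shown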
Mtb hypoxia inh: reduces hypoxia-regulated biosensor signal in M. tuberculosis; M. tuberculosis hypoxia-regulated fluorescent reporter, fluorescence; fluorescence inhibition, % (no concentration beside the values); hit rate 0.1% among 300,000;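 active = 35 to 45% if threefold the growth effect, above 45% if 1.5-fold the growth effect; inactive = the rest, general growth blockers included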;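 also: wells of about 50 µL received 100 nL stock; 0% = vehicle wells and 100% = reference inhibitor wells; whole bacteria with a GFP reporter of the hypoxia response; strong numbers were not always called active; many hits fall short of the cut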
ugtP null kill: growth inhibition of S. aureus ugtP deletion strain; S. aureus RN4220 ugtP deletion, OD600 growth, 16 h; some inactives read as strong as hits; growth inhibition, % (no concentration beside the values); hit rate 0.54% among 330,000;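 active = z-score under -3 and OD600 up to 0.15 on both plates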;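 also: plate controls were untreated wells for no effect and antibiotic for full effect; wells of about 80 µL received 100 nL stock; the first replicate is given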
Mtb hypoxia inh growth: further read-out of Mtb hypoxia inh, marked with its call; growth inhibition, %; measured here: M. tuberculosis growth (absorbance);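 0% = vehicle and 100% = reference antibiotic; read after six days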
Starred values were filed as active, the others as inactive.

`CCC(CC)NC(=O)c1cccc(Br)c1` gave Bead autofluor 3201, PrP 5UTR inh -18.3, BJeLR lethal -5.4, RN4220 kill 1.7, Mtb hypoxia inh 10.1, ugtP null kill 3.6 and Mtb hypoxia inh growth 1.5.
C#CCSc1nnc(-c2sc(-c3ccccc3)nc2C)n1C was read as Bead autofluor 10517, PrP 5UTR inh -19.0, BJeLR lethal -3.2, RN4220 kill -4.0, Mtb hypoxia inh -19.1, ugtP null kill -11.4 and Mtb hypoxia inh growth 4.5.
`Cc1nnc(SCC(=O)Nc2sccc2C(N)=O)s1` gave Bead autofluor inconclusive, RN4220 kill 0.5, Mtb hypoxia inh 5.6, ugtP null kill 1.8 and Mtb hypoxia inh growth 2.9.
`Cc1cccc(C=Nn2c(COc3ccccc3)n[nH]c2=S)c1` gave RN4220 kill 2.6, Mtb hypoxia inh 16.5, ugtP null kill -3.4 and Mtb hypoxia inh growth 5.1.
CC(C)OC(=O)Cn1nnc2c(cnn2-c2ccccc2)c1=O was read as Bead autofluor 2386, PrP 5UTR inh -39.8, BJeLR lethal 2.6, RN4220 kill 3.8, Mtb hypoxia inh 9.6, ugtP null kill 2.7 and Mtb hypoxia inh growth 6.5.
`O=C(C1=C[C@@H](c2ccc(Br)cc2)C[C@@H](OCc2ccc(CO)cc2)O1)N1CCOCC1` gave Bead autofluor 3126, PrP 5UTR inh -23.9 and BJeLR lethal -6.4.
`CCOc1ccccc1CNC(c1ccccc1)c1ccccc1` gave Bead autofluor 3462, PrP 5UTR inh -29.4, BJeLR lethal -0.1, RN4220 kill -7.5, Mtb hypoxia inh 19.2, ugtP null kill 47.2 and Mtb hypoxia inh growth 8.5.
For O=C(O)C1Cc2[nH]cnc2C(c2ccccc2O)N1 (configuration not stated) the results were Bead autofluor 2268, PrP 5UTR inh -11.2 and BJeLR lethal 3.3.
`O=C(c1ccc2ccccc2n1)N1CCN(c2ccccc2)CC1` gave Bead autofluor 4057, PrP 5UTR inh 4.2, BJeLR lethal -0.8, RN4220 kill 3.6, Mtb hypoxia inh 12.5, ugtP null kill 4.9 and Mtb hypoxia inh growth 1.0.
C=CCOc1ccc(/C=N/n2cncn2)cc1OC was read as Bead autofluor 4224, PrP 5UTR inh -13.5 and BJeLR lethal -9.5.
`COc1ccc([N+](=O)[O-])c(OC)c1C(=O)NC(=O)Nc1nc(C)nc(C)n1` gave Bead autofluor 5897, PrP 5UTR inh -9.4, BJeLR lethal 12.0, RN4220 kill 2.0, Mtb hypoxia inh 7.3, ugtP null kill 9.2 and Mtb hypoxia inh growth 3.4.
For CN(C)c1ccc(P(=O)(OC2CCCCC2)C(O)c2ccccn2)cc1 (configuration not stated) the results were Bead autofluor 3758, PrP 5UTR inh -18.7, BJeLR lethal 5.7, RN4220 kill 10.1, Mtb hypoxia inh -0.2, ugtP null kill 4.5 and Mtb hypoxia inh growth 5.9.
Cc1cc(C(=O)Nc2ccc(F)cc2C)cs1 was read as Bead autofluor 6175, PrP 5UTR inh -11.9, BJeLR lethal 2.4, RN4220 kill 3.2, Mtb hypoxia inh -2.3, ugtP null kill -4.4 and Mtb hypoxia inh growth 4.4.
Screening S=c1nc2ccccc2c2nc(-c3ccccc3)[nH]n12 returned Bead autofluor 6494, PrP 5UTR inh 1.9 and BJeLR lethal -8.8.
Screening C=C(C)C1CC=C(C)/C(=N/NC(=S)Nc2ccccc2)C1 (configuration not stated) returned Bead autofluor 2232, PrP 5UTR inh -4.8 and BJeLR lethal -14.9.
`Cc1ccc2nc3ccc(N4CCN(C)CC4)nn3c(=O)c2c1` gave Bead autofluor 2641, PrP 5UTR inh -69.6, BJeLR lethal -2.9, RN4220 kill -14.5, Mtb hypoxia inh 4.4, ugtP null kill -7.5 and Mtb hypoxia inh growth 16.0.
CC(=O)Nc1ccc(S(=O)(=O)NCCc2ccccn2)cc1 was read as Bead autofluor 4285, PrP 5UTR inh -6.8, BJeLR lethal 8.8, RN4220 kill 4.1, Mtb hypoxia inh 12.9, ugtP null kill 1.4 and Mtb hypoxia inh growth 0.6.
`O=C(Nc1ccc(C(=O)N2CCCc3ccccc32)cc1)c1cccs1` gave PrP 5UTR inh -22.5, BJeLR lethal -3.9, RN4220 kill 4.7, Mtb hypoxia inh 6.6, ugtP null kill 2.7 and Mtb hypoxia inh growth 3.0.
`O=C(NN=C/C(Br)=C\c1ccccc1)c1ccc2nc[nH]c2c1` gave RN4220 kill 5.8, Mtb hypoxia inh 16.8, ugtP null kill -1.7 and Mtb hypoxia inh growth 0.9.
O=C1CCCC2=C1C(c1ccc(Br)cc1)c1c([nH]c(=S)[nH]c1=O)N2 (configuration not stated) was read as Bead autofluor 8968, PrP 5UTR inh -23.2, BJeLR lethal -1.7, RN4220 kill 15.6, Mtb hypoxia inh -0.5, ugtP null kill 4.0 and Mtb hypoxia inh growth 2.9.
For CN(C(=O)Oc1ccc(F)cc1)c1ccccc1 the results were Bead autofluor 3127, PrP 5UTR inh -12.7, BJeLR lethal 8.2, RN4220 kill 2.3, Mtb hypoxia inh -2.4, ugtP null kill 6.0 and Mtb hypoxia inh growth -1.1.
Screening COCCN(C(=O)CSc1nnc(-c2ccc(C)cc2)n1N)c1c(N)n(Cc2ccccc2)c(=O)[nH]c1=O returned Bead autofluor 4598, PrP 5UTR inh -8.7, BJeLR lethal 2.4, RN4220 kill 4.8, Mtb hypoxia inh 2.9, ugtP null kill 11.6 and Mtb hypoxia inh growth -6.3.
For COC(=O)c1ccc(OC)c(Cn2c(=O)n(C)c(=O)c3sccc32)c1 the results were Bead autofluor 3451, PrP 5UTR inh -45.6, BJeLR lethal -4.9, RN4220 kill 2.6, Mtb hypoxia inh 15.0, ugtP null kill 16.1 and Mtb hypoxia inh growth 7.0.
CSCCC(Nc1ccc(S(=O)(=O)N2CCOCC2)cc1[N+](=O)[O-])C(=O)OCC(=O)NCC(C)C (configuration not stated) was read as Bead autofluor 2433, PrP 5UTR inh 6.5, BJeLR lethal -5.0, RN4220 kill 6.1, Mtb hypoxia inh 6.4, ugtP null kill 0.9 and Mtb hypoxia inh growth 3.4.
`COC(=O)c1cc(S(=O)(=O)NCc2cccs2)c[nH]1` gave Bead autofluor 5372, PrP 5UTR inh -13.0, BJeLR lethal 0.4, RN4220 kill 2.3, Mtb hypoxia inh -13.7, ugtP null kill 2.8 and Mtb hypoxia inh growth -7.5.
Screening COc1ccc(CCN2C(=O)C(O)=C(C(C)=O)C2c2ccccc2OC)cc1OC (configuration not stated) returned Bead autofluor 9350, PrP 5UTR inh -13.0, BJeLR lethal 3.6, RN4220 kill 8.9, Mtb hypoxia inh 3.6, ugtP null kill 16.1 and Mtb hypoxia inh growth 6.2.
O=C(CSc1nnc(NC(=O)c2ccccc2F)s1)NCc1ccco1 was read as Bead autofluor 7374, PrP 5UTR inh -9.9, BJeLR lethal 7.6, RN4220 kill -7.2, Mtb hypoxia inh 1.2, ugtP null kill 11.2 and Mtb hypoxia inh growth 3.4.
For CCOc1ccc(C2OC(=O)Cc3cc(OC)c(OC)cc32)cc1 (configuration not stated) the results were Bead autofluor 10247, PrP 5UTR inh -26.6, BJeLR lethal 0.8, RN4220 kill 3.2, Mtb hypoxia inh -0.8, ugtP null kill -3.4 and Mtb hypoxia inh growth 2.2.
Cc1ccc(S(=O)(=O)NC2=NCN(C3CCCCC3)CN2)cc1 was read as Bead autofluor 10108, PrP 5UTR inh -56.8, BJeLR lethal 6.9, RN4220 kill 0.0, Mtb hypoxia inh 6.3, ugtP null kill 5.3 and Mtb hypoxia inh growth 1.3.
For Cc1cc(N2C(=O)C(=O)/C(=C(/O)c3ccc(F)cc3)C2c2ccc(F)cc2)no1 (configuration not stated) the results were Bead autofluor 3248, PrP 5UTR inh -1.6, BJeLR lethal 7.4, RN4220 kill 11.4 and ugtP null kill 0.7.
`Cc1ccc2c(c1)C(C)CC(C)(C)N2C(=O)NC1CCCCC1` (configuration not stated) gave Bead autofluor 2233, PrP 5UTR inh -13.2, BJeLR lethal -1.4, RN4220 kill 1.7 and ugtP null kill 0.0.
Screening Cc1ccc(NC(=O)CN(C)C(=O)CSc2nc3ccccc3c(=O)n2Cc2ccco2)cc1 returned Bead autofluor 2125, PrP 5UTR inh -3.4, BJeLR lethal -7.8, RN4220 kill 1.6 and ugtP null kill -8.2.
For C/C(=N\NC(=O)C(N)=O)c1ccc(OC(F)F)cc1 the results were Bead autofluor 2400, PrP 5UTR inh -7.4 and BJeLR lethal -7.7.
`CN(C)S(=O)(=O)c1cccc(C(=O)NC2CCCc3ccccc32)c1` (configuration not stated) gave Bead autofluor 4650, PrP 5UTR inh -14.9, BJeLR lethal -8.0, RN4220 kill 2.4, Mtb hypoxia inh 3.8, ugtP null kill 1.0 and Mtb hypoxia inh growth 8.0.
For COc1ccc(Cl)cc1NC(=O)CCN1C(=O)C2C3C=CC(C4CC34)C2C1=O (configuration not stated) the results were Bead autofluor 4804, PrP 5UTR inh -19.1, BJeLR lethal 0.6, RN4220 kill 0.0, Mtb hypoxia inh -1.9, ugtP null kill 3.9 and Mtb hypoxia inh growth 2.9.
CN(NS(=O)(=O)c1ccc(Br)cc1)c1nc(C(F)(F)F)nc2ccccc12 was read as Bead autofluor 2233, PrP 5UTR inh 8.6, BJeLR lethal 8.8, RN4220 kill 5.9, Mtb hypoxia inh -2.8, ugtP null kill -3.1 and Mtb hypoxia inh growth 9.2.
Cc1ccc(NC(=O)NNC(=O)c2cc3ccccc3cc2O)c(C)c1 was read as Bead autofluor 6036, PrP 5UTR inh -11.6, BJeLR lethal -3.1, RN4220 kill 4.0, Mtb hypoxia inh 5.7, ugtP null kill 0.8 and Mtb hypoxia inh growth 0.5.
CCOC(=O)CC(=O)Nc1ccc(Br)cc1C(=O)O was read as Bead autofluor 4571, PrP 5UTR inh -4.0, BJeLR lethal 7.8, RN4220 kill -0.6 and ugtP null kill -3.6.
For CCCc1c(C(=O)N/N=C/C(C)=C/c2ccco2)nnn1-c1nonc1N the results were Bead autofluor 5568, PrP 5UTR inh -17.4 and BJeLR lethal 6.5.
CCn1c2ccccc2c2cc([N+](=O)[O-])ccc21 was read as Bead autofluor 2703, PrP 5UTR inh -11.2, BJeLR lethal -3.2, RN4220 kill 1.1, Mtb hypoxia inh -11.0, ugtP null kill -8.4 and Mtb hypoxia inh growth -2.3.

An excerpt taken from the entries so far, for reference:
For CN(C(=O)Oc1ccc(F)cc1)c1ccccc1 the results were Bead autofluor 3127, PrP 5UTR inh -12.7, BJeLR lethal 8.2, RN4220 kill 2.3, Mtb hypoxia inh -2.4, ugtP null kill 6.0 and Mtb hypoxia inh growth -1.1.
Screening COCCN(C(=O)CSc1nnc(-c2ccc(C)cc2)n1N)c1c(N)n(Cc2ccccc2)c(=O)[nH]c1=O returned Bead autofluor 4598, PrP 5UTR inh -8.7, BJeLR lethal 2.4, RN4220 kill 4.8, Mtb hypoxia inh 2.9, ugtP null kill 11.6 and Mtb hypoxia inh growth -6.3.
For COC(=O)c1ccc(OC)c(Cn2c(=O)n(C)c(=O)c3sccc32)c1 the results were Bead autofluor 3451, PrP 5UTR inh -45.6, BJeLR lethal -4.9, RN4220 kill 2.6, Mtb hypoxia inh 15.0, ugtP null kill 16.1 and Mtb hypoxia inh growth 7.0.

Other compounds:
Cc1ccc(NC(=O)Cn2ncc3ccccc32)c(Cl)c1 was read as Bead autofluor 3927, PrP 5UTR inh 2.4, BJeLR lethal 7.3, RN4220 kill 1.8, Mtb hypoxia inh -10.1, ugtP null kill 0.0 and Mtb hypoxia inh growth 5.1.
O=C(CC1(O)C(=O)N(Cc2ccc3c(c2)OCO3)c2ccccc21)c1ccccc1 (configuration not stated) was read as Bead autofluor 2865, PrP 5UTR inh 4.6, BJeLR lethal -4.1, RN4220 kill -7.2, Mtb hypoxia inh 13.1, ugtP null kill -6.2 and Mtb hypoxia inh growth -0.9.
For Cc1cccc(-c2n[nH]c(=S)n2/N=C/C=C/c2ccco2)c1 the results were Bead autofluor 5280, PrP 5UTR inh -29.9 and BJeLR lethal 4.4.
CCOc1ccc(-c2nonc2NC(=O)c2ccco2)cc1 was read as Bead autofluor 5691, PrP 5UTR inh -9.5, BJeLR lethal 1.9, RN4220 kill -0.1, Mtb hypoxia inh 17.0, ugtP null kill 1.1 and Mtb hypoxia inh growth 7.3.
Screening O=C(CN1C(=O)NC2(CCCCC2)C1=O)N1CCN(S(=O)(=O)c2ccc(F)cc2)CC1 returned Bead autofluor inconclusive, PrP 5UTR inh -19.5, BJeLR lethal 4.7, RN4220 kill 1.2, Mtb hypoxia inh -1.8, ugtP null kill 4.1 and Mtb hypoxia inh growth 0.5.
